KCNQ2 block: KCNQ2 potassium channel inhibitors, primary screen, cell-based, CHO-K1, FluxOR thallium flux, B-score (AID 2156). B-score at 10 µM. Potassium voltage-gated channel subfamily KQT member 2 (Rattus norvegicus), O88943. 20 min; active compounds read low; only compounds with negative scores are shown here; some inactives read as strong as hits. 310,000 compounds, 1.1% hits;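 active = fluorescence ratio B-score at most minus 3 library SDs, with starting brightness B-score within 2 library SDs, cut at about -5.5 in these data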
Target sequence (O88943 whole entry, looked up): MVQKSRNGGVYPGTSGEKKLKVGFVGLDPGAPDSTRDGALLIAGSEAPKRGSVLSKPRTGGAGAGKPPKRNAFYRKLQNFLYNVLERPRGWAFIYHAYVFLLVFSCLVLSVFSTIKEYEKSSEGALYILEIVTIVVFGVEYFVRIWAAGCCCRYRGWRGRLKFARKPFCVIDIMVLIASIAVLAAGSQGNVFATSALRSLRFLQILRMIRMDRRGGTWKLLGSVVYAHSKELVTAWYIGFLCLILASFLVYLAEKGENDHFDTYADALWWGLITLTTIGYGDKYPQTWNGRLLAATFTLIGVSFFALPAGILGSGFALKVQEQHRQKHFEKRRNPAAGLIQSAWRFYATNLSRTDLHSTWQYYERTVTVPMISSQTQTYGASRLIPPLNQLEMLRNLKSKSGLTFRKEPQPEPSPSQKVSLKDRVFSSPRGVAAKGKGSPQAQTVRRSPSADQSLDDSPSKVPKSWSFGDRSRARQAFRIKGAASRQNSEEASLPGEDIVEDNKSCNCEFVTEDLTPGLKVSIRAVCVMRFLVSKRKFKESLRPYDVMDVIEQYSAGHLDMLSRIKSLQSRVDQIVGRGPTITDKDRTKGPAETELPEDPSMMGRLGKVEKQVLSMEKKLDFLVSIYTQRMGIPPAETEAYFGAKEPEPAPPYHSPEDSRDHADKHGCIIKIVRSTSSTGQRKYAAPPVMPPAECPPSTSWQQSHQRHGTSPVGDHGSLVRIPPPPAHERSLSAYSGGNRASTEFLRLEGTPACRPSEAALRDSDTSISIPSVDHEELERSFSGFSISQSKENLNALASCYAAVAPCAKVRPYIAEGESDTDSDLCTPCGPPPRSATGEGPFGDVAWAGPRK
KCNQ2 block baseline: also measured in KCNQ2 block; calls as there; B-score; measured here: initial fluorescence intensity artifact check;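 brightness before thallium and not channel activity; 0 = typical well and far values either way flag optical interference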
An asterisk follows results filed as active; i = inactive.

no.	KCNQ2 block	KCNQ2 block baseline	Molecule
1	i	0.35	O=P(O)(CCc1ccccc1)CN1CCCCC1
2	-6*	0.1*	O=C(c1cc(-c2ccc(Cl)s2)nc2ccccc12)N1CCOCC1
3	i	-0.14	Cc1ccc(CN2CCCCC2C(=O)Nc2ccc(Oc3cccnc3)cc2)o1 (stereo not given)
4	i	0.93	CC(C)(C)NC(=O)C(c1ccncc1)N(C(=O)c1csnn1)c1ccccc1 (stereo not given)
5	i	0.18	Cc1ccc(NC(=O)CNC(=O)c2cccc(Cl)c2)nc1
6	i	-1.2	C=CCNC(=O)CSc1nnc(C(CC)N(C)C)n1C1CCCCC1 (stereo not given)
7	i	-0.66	COc1ccc(OC)c(C2Nc3nc4ccccc4n3C(C)=C2C(=O)Nc2ccc(C)cc2C)c1 (stereo not given)
8	i	-0.33	CCOc1ccc(N(CC(=O)Nc2ccccc2C(=O)NC(C)CC)S(C)(=O)=O)cc1 (stereo not given)
9	i	-0.67	CCC(C(=O)Nc1ccc(C(C)C)cc1)c1ccccc1 (stereo not given)
10	i	1.3	COc1ccc(C)cc1S(=O)(=O)N(C)CC(=O)N1CCC(C(N)=O)CC1
11	i	-0.62	COc1ccccc1C(NC(C)=O)c1c(O)ccc2ccc(O)cc12 (stereo not given)
12	i	0.27	COc1ccc(N2CCN(C(=O)C3CCCN(S(=O)(=O)c4ccc5c(c4)oc(=O)n5C)C3)CC2)cc1 (stereo not given)

Additional results follow:
no.	KCNQ2 block	KCNQ2 block baseline	Molecule
13	i	-0.06	Cc1cc(C)c2nc(SCCc3ccccc3)nc(C)c2c1
14	i	-0.95	COc1ccc(S(=O)(=O)Nc2cccc(SC)c2)cc1C(=O)N1CCOCC1
15	i	2	CC(=O)Nc1ccc(NC2=CC(=O)c3ccccc3C2=O)cc1
16	i	-0.01	COc1ccc(-c2nc(N)ncc2-c2ccc(Cl)cc2)c(O)c1
17	i	2.2	COc1ccc2c(C)c(Cl)c(=O)oc2c1
18	i	0.93	CCN(CC(=O)Nc1ccc(C)c(F)c1)CC(=O)NC(C)(C)C
19	i	0.96	O=C(NCC1COCCO1)c1cc(COc2ccc(F)cc2F)on1 (stereo not given)
20	i	0.19	COc1ccc(OC)c(/C(O)=C/C(=O)C(=O)Nc2cc(C)cc(C)c2)c1
21	i	-0.91	COc1ccc(CCNC(=O)C2CCN(C(=O)c3ccc([N+](=O)[O-])cc3)CC2)cc1
22	i	0.21	C/C(=C/c1ccccc1)C(=O)N1CCN(c2ccccc2)CC1
23	i	0.02	CCOC(=O)c1oc2ccccc2c1COC(=O)CNC(=O)c1cc(OC)c(OC)c(OC)c1
24	i	0.94	CCN(CC)S(=O)(=O)c1ccc(N=Nc2cc(C)cc(Br)c2O)cc1

More records
no.	KCNQ2 block	KCNQ2 block baseline	Molecule
25	i	-0.77	CCOc1ccc(NC(=O)CN2C(=O)c3ccccc3C2=O)cc1
26	i	0.95	CCSc1nnc(NC(=O)C2CCN(S(=O)(=O)c3c(C)c(C)cc(C)c3C)CC2)s1
27	i	-0.03	Cc1c(-c2ccc(/C=N/NC(=O)C(=O)Nc3ccccc3F)o2)cccc1[N+](=O)[O-]
28	i	1.1	C=CCNC(=O)CN(CCc1ccccc1)S(=O)(=O)c1ccccc1
29	i	-0.19	O=C(c1ccco1)N(Cc1ccccc1)Cc1ccccn1
30	i	-2.1	C=CCOc1ccc(/C(O)=C2\C(=O)C(=O)N(CCCOC)C2c2ccc(O)c(OC)c2)cc1 (stereo not given)
31	i	-0.69	O=C(Nc1ccc(Cl)c([N+](=O)[O-])c1)C(NCCCO)c1ccccc1 (stereo not given)
32	i	-0.4	CCOC(=O)c1c(C)[nH]c(NC(=O)Nc2ccc(NC(C)=O)cc2)c1C
33	i	-0.01	CC(=O)Nc1ccc(S(=O)(=O)Nc2nc3ccccc3nc2N2CCc3ccccc3C2)cc1
34	i	-0.15	COc1ccc(CNC(=O)C[C@H]2C(=O)N(CCc3ccccc3)C[C@@H]2Cc2ccccc2)cc1
35	i	1.4	S=c1[nH]nc(-c2cc(-c3ccccc3)n[nH]2)n1/N=C/C(Br)=C/c1ccccc1
36	i	0.46	Cc1onc(-c2ccccc2)c1C(=O)N1CCN(Cc2ccccc2)CC1

(list continues)
no.	KCNQ2 block	KCNQ2 block baseline	Molecule
37	i	1.4	O=C(NO)c1ccc(OC(F)F)cc1
38	i	0.01	COc1cc(OC)c(C2N(c3cc(C)on3)C(=O)C3CCCN32)cc1OC (stereo not given)
39	i	0.4	O=C1CCCc2[nH]c3cccc(/C(=C/c4ccccc4)c4ccccc4)c3c21
40	i	0.47	CCOc1ccc(N2C(=O)CC(NCCc3c[nH]c4ccccc34)C2=O)cc1 (stereo not given)
41	i	3.4	CC(=O)Nc1c(-c2ccccc2Cl)c(=O)c2ccccc2n1C
42	i	0.25	FC(F)(F)c1cnc(Oc2cccc3ccccc23)c(Cl)c1
43	i	-0.06	COC(=O)C1=C(C)N(Cc2ccco2)C(=O)N[C@@H]1c1ccco1
44	i	0.79	COC(=O)c1c(C)oc2ccc(N(C(=O)c3ccncc3)S(=O)(=O)c3ccc(C)cc3)cc12
45	i	0.75	CCN(C(=O)COC(=O)c1cccnc1Nc1cccc(C(F)(F)F)c1)C1CCS(=O)(=O)C1 (stereo not given)
46	i	2.2	COCCOC1CCN(C(=O)C2CCC(=O)N(Cc3cccc(F)c3)C2)CC1 (stereo not given)
47	i	-0.03	CCCCC(=O)Nc1ccc(C(=O)NCc2ccncc2)cc1
48	i	0.28	COc1cc(C2/C(=C(\O)c3ccc4c(c3)CC(C)O4)C(=O)C(=O)N2CCN2CCOCC2)cc(OC)c1OC (stereo not given)

More structures.
no.	KCNQ2 block	KCNQ2 block baseline	Molecule
49	i	0.01	COc1ccc(C(=O)Nc2ccc(N3CCN(C(=O)C(C)C)CC3)cc2)cc1[N+](=O)[O-]
50	i	0.46	O=C(OCC(=O)C12CC3CC(CC(C3)C1)C2)c1cccnc1
51	i	-1.5	C=CCc1ccccc1OCC(O)CN1CCN(CCN2C(=O)c3cccc4cccc(c34)C2=O)CC1 (stereo not given)
52	i	0.3	Cc1cccc(N2CCN(S(=O)(=O)c3ccc4c(c3)CCCN4C(=O)C3CCC3)CC2C)c1 (stereo not given)
53	i	-1.6	CCCS(=O)(=O)N1CCCC(C(=O)NCCN2CCCCC2C)C1 (stereo not given)
54	i	0.71	CCOc1ccc(CCNC(=O)COC(=O)c2cccc(S(=O)(=O)N3CCCC3)c2)cc1OCC
55	i	-1.8	CC1CC(NC(=O)c2cnc3n(c2=O)CCS3)CC(C)(C)C1 (stereo not given)
56	i	0.57	CC(NC(=O)Cc1ccc(F)cc1)c1ccc(F)cc1 (stereo not given)
57	i	-0.54	Cc1ccccc1CN1CCN(C(=O)c2cccc3ccccc23)CC1
58	i	1.2	CCOC(=O)CC(=O)CSC1=C(C#N)C(c2ccccc2OC)CC(=O)N1 (stereo not given)
59	-6.3*	-3.2*	COc1cc(OC)cc(C(=O)Nc2nc(CC(=O)NC(C)c3ccccc3)cs2)c1 (stereo not given)
60	i	-0.59	O=C(COc1ccc2ccccc2c1)N1CCN(c2ccccc2)CC1

(next part)
no.	KCNQ2 block	KCNQ2 block baseline	Molecule
61	i	-0.85	Cc1ccc(NC(=O)CN2CCN(Cc3ccccc3)CC2)cc1
62	i	-1.1	NC(=O)[C@H]1CC2(CC(c3cccc(NC(=O)COc4ccc(Cl)cc4)c3)=NO2)CN1C(=O)c1ccc(Cl)cc1 (stereo not given in full)
63	i	-0.77	COC(=O)c1ccccc1NC(=O)N1CCN(c2ccccc2)CC1
64	i	0.11	CC(=O)c1cccc(N=C2C(=O)Nc3ccccc32)c1
65	i	-0.45	O=C(Nc1nc2cc3c(cc2s1)OCO3)C1=COCCO1
66	i	-1	Cn1c(C(=O)N2CCCC(C(=O)NCCCc3ccccc3)C2)cc2sccc21 (stereo not given)
67	i	-0.21	O=C(Cn1c(=O)oc2ccccc21)Nc1ccc(Cl)cc1Cl
68	i	0.57	N#C/C(=C\C1=C(N2CCOCC2)C(=C\c2ccccc2)/CC1)C(=O)Nc1ccccc1F
69	i	0.6	O=C(Nc1ccc2c(c1)OCO2)c1ccc(N2CCCC2)c([N+](=O)[O-])c1
70	i	0.85	O=[N+]([O-])c1ccc(COc2ccc(Br)cc2CN2CCOCC2)cc1
71	i	2.9	CC(=O)NC(CCS(C)(=O)=O)C(=O)Nc1cccc(C)c1C (stereo not given)
72	i	-0.38	Cc1c(CN2CCCCC2)c(O)n(CCO)c(=O)c1C#N

Further entries
no.	KCNQ2 block	KCNQ2 block baseline	Molecule
73	i	-0.08	O=C(COc1ccc(Br)cc1)NCc1cn2ccccc2n1
74	i	1.5	O=C(CO/N=C/c1ccc2c(c1)OCO2)Nc1cccc(Br)c1
75	i	0.63	Cc1cccc(/C=N\N=C\c2cccc(C)c2)c1
76	i	-0.02	O=C(Nc1ccc2c(c1)OCO2)c1c(Cl)nc2sccn12
77	i	-0.03	O=S(Cc1ccccc1)CC(O)(c1ccccc1)c1ccccc1 (stereo not given)
78	i	0.01	CCCCNC(=O)c1onc(CSc2cccc(Cl)c2)c1C(=O)O
79	i	1.1	O=C(NCc1ccccc1)N1CCNCC1
80	i	-1.2	C=CCNC(=O)CN1C(=O)C2C3c4ccccc4C(c4ccccc43)C2C1=O (stereo not given)
81	i	0.32	CC(=O)c1ccc(NC(=O)CS(=O)(=O)c2cn(CC(=O)N3CCOCC3)c3ccccc23)cc1
82	i	0.11	COc1ccccc1C(=O)NC(=O)CSc1nc(C)cs1
83	i	-0.02	C/C(CC(C)C)=N/Nc1ccc([N+](=O)[O-])cc1[N+](=O)[O-]
84	i	-0.25	COc1ccc(NC(=O)c2cc(S(=O)(=O)N3CCc4ccccc43)cn2C)cc1OC

Next structures
no.	KCNQ2 block	KCNQ2 block baseline	Molecule
85	i	0.21	CCOc1cc(/C=N\Nc2nc(Nc3ccccc3)nc(N3CCOCC3)n2)ccc1OC(=O)c1ccco1
86	i	0.78	CN(Cc1ccccc1)C(=O)C1CCCN(c2ncnc3c2nc2n3CCCCC2)C1 (stereo not given)
87	i	1.7	COc1ccccc1N1CCN(C(=O)C2CCN(S(=O)(=O)c3ccc4c(c3)CC(C)N4C(=O)C3CC3)CC2)CC1 (stereo not given)
88	i	-0.55	Cc1ccc(Cl)cc1NC1=C/C(=N\S(=O)(=O)c2cccs2)c2ccccc2C1=O
89	i	-1.9	O=C(Nc1nnc(C2=COCCO2)o1)c1ccc(S(=O)(=O)N2CCCCC2)cc1
90	i	0.69	COC(=O)CN1C(C)=Nc2ccc(C)cc2C1c1ccccc1 (stereo not given)
91	i	1.4	CCOC(=O)[C@@H]1[C@H]2COc3ccccc3[C@H]2N2C(=O)N(c3ccc(C(F)(F)F)cc3)C(=O)[C@]12C
92	i	-0.1	O=C(N/N=C/c1cccnc1)c1cccc(N2CCCC2=O)c1
93	i	0.29	O=C(NC(=S)Nc1ccc2ncccc2c1)c1ccccc1
94	i	1.1	Cc1cc(=O)[nH]c(SCC(=O)Nc2ccccc2[N+](=O)[O-])n1
95	i	-0.87	O=S(=O)(c1ccc(Sc2nnc3ccccn23)nc1)N1CCOCC1
96	i	0.68	O=C(N/N=C/c1cc(Br)ccc1O)C(c1ccncc1)N1CCOCC1 (stereo not given)

Following part
no.	KCNQ2 block	KCNQ2 block baseline	Molecule
97	i	1.3	CC(NC(=O)Cn1cc2c(n1)CCCCC2)c1ccccc1 (stereo not given)
98	i	0.61	CCOc1ccccc1C(=O)NCCCCCC(=O)O
99	i	0.56	Cc1ccc(/C=C/C(=O)Nc2cc(C)on2)cc1
100	i	-1.5	CCCCCOc1ccc(NC(=O)C(=O)NCCCn2ccnc2)cc1
101	i	-1.6	O=c1[nH]c(CSc2ncnc3sccc23)nc2ccccc12
102	i	-1.2	CCC1(c2ccccc2)NC(=O)N(CC(=O)Nc2cc(S(=O)(=O)N3CCCCC3)ccc2N(C)C)C1=O (stereo not given)
103	i	2.6	C(#Cc1ccccc1)C[N+]1(CC#Cc2cccc3ccccc23)CCCC1
104	i	-1.1	CC(C)c1c(C(=O)N/N=C/c2ccccc2OCc2c(F)cccc2Cl)nnn1-c1nonc1N
105	i	0.58	O=C(/C=C/c1cccs1)NCc1ccccc1
106	i	0.11	COc1cc2c(C(=O)N3CCN(c4cccc(Cl)c4)CC3)cn(CC(C)C)c(=O)c2cc1OC
107	i	-1.7	Cc1cc(N2CCCCC2)nc2ccccc12
108	i	-2.1	Cc1ccc(F)cc1NC(=O)N1CCN(c2ccnc3cc(Cl)ccc23)CC1
109	i	0.3	Cc1cccc(OCCn2ccnc2)c1C

Entries shown so far with fluorine, in the order listed:
no.	KCNQ2 block	KCNQ2 block baseline	Molecule
18	i	0.93	CCN(CC(=O)Nc1ccc(C)c(F)c1)CC(=O)NC(C)(C)C
19	i	0.96	O=C(NCC1COCCO1)c1cc(COc2ccc(F)cc2F)on1 (stereo not given)
27	i	-0.03	Cc1c(-c2ccc(/C=N/NC(=O)C(=O)Nc3ccccc3F)o2)cccc1[N+](=O)[O-]
37	i	1.4	O=C(NO)c1ccc(OC(F)F)cc1
42	i	0.25	FC(F)(F)c1cnc(Oc2cccc3ccccc23)c(Cl)c1
45	i	0.75	CCN(C(=O)COC(=O)c1cccnc1Nc1cccc(C(F)(F)F)c1)C1CCS(=O)(=O)C1 (stereo not given)
46	i	2.2	COCCOC1CCN(C(=O)C2CCC(=O)N(Cc3cccc(F)c3)C2)CC1 (stereo not given)
56	i	0.57	CC(NC(=O)Cc1ccc(F)cc1)c1ccc(F)cc1 (stereo not given)
68	i	0.57	N#C/C(=C\C1=C(N2CCOCC2)C(=C\c2ccccc2)/CC1)C(=O)Nc1ccccc1F
91	i	1.4	CCOC(=O)[C@@H]1[C@H]2COc3ccccc3[C@H]2N2C(=O)N(c3ccc(C(F)(F)F)cc3)C(=O)[C@]12C
104	i	-1.1	CC(C)c1c(C(=O)N/N=C/c2ccccc2OCc2c(F)cccc2Cl)nnn1-c1nonc1N
108	i	-2.1	Cc1ccc(F)cc1NC(=O)N1CCN(c2ccnc3cc(Cl)ccc23)CC1

From PubChem BioAssay

This is a subset, so the mix of outcomes need not match the whole.
